# NPYLR7 ag: agonists of mosquito NPYLR7 receptor, primary screen, cell-based, Aedes aegypti, calcium fluorescence, mosquito biting behavior. AID 1259423, 2018. hit rate 0.15% among 270,000. activation, % at 10 µM. HEK293T NPYLR7/Galpha15, GCaMP6s calcium fluorescence. Aedes aegypti neuropeptide Y-like receptor 7 (NPYLR7); in the data active = activation above about 40%;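 note: 0% = vehicle and 100% = reference agonist at the receptor; some compounds past the cut are filed as inactive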
# NPYLR7 ag max-min: second read-out of NPYLR7 ag, no call of its own (marks repeat the call); activation, %; measured here: Max-Min RFU normalised activation; some inactives read as strong as hits;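 span of the calcium signal over five minutes; 0% = vehicle and 100% = native peptide agonist; compound fluorescence can raise it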
# * marks the source's active call; other numbers are inactive results; & = joins results of further samples.
SMILES,NPYLR7 ag,NPYLR7 ag max-min
NC(=S)N/N=C\c1cn(-c2ccccc2)nc1-c1ccc(Cl)cc1,-0.8,-3.9
CC1=C(c2ccccc2)N2CCS(=O)(=O)N=C2S1,-2.8,-4.0
Cn1c(=O)n(C)c2cc(Cn3ccnc3-c3ccc(-n4ccnc4)cc3)ccc21,11.5,7.6
O=S1(=O)c2cccnc2OC(COc2ccccc2)CN1CCOc1ccccc1 (stereo unspecified),0.6,11.9
CN(Cn1ncn(-c2ccccc2F)c1=S)C1CCCC1,0.0,-1.7
CCCN(CCC)c1cc(-c2ccccc2)nc2ncnn12,21.7,9.7
CCN(CC)c1ccc2cc(C(N)=O)c(=Nc3cccc(C(F)(F)F)c3)oc2c1,-2.0,-2.0
CN1CCC2(CC1)CN(C(=O)c1n[nH]c3ccccc13)CCCN2C,11.5,8.1
COc1ccc(CC2c3c(cnn3-c3ccc(OC)cc3)C(=O)N2CC2CC2)cc1 (stereo unspecified),3.6,-3.7
Cc1nc2c(c(=O)n1C)CCN(Cc1nc(C(C)C)cs1)CC2,-7.5,-10.2
CC(C)=CC(=O)N1CCCC(Nc2ccccc2)C1 (stereo unspecified),2.8&2.3,1.8&-0.9
CC(C)CN=C1SCCN1C(=O)Nc1cccc(Cl)c1,2.6,3.8
Cc1nc(CN(C)Cc2ccc3c(c2)Cc2ccccc2-3)no1,-4.3,-5.0
CCOC(=O)c1c(NC(=O)COC(=O)c2ccccc2OCC)sc(C(C)=O)c1C,13.4,13.0
Cc1cnc(NC(C)CCN2CCOCC2)nc1N(C)C (stereo unspecified),22.4,9.2
COc1cc(C2NC(=O)N(C)C(C)=C2C(=O)OCCc2ccccc2)cc(Br)c1O (stereo unspecified),2.9,-0.6
COc1ccc2nc(NC(=O)/C=C/c3ccc([N+](=O)[O-])cc3)sc2c1,0.8,-2.2
Cc1cc(C(=O)N(CCCN(C)C)c2nc3ccccc3s2)on1,2.1,17.7
O=C(NC(c1ccccc1)c1cnccn1)C1CCN(Cc2ccc(Cl)c(Cl)c2)CC1 (stereo unspecified),2.6,5.8
O=C(O)c1nn(CC2CC2)c2c1CN(C(=O)c1cnn3c1CCCC3)CC2,11.2,-7.4
O=C(O)CSC1CC(=O)N(c2cc(Cl)c(Cl)cc2Cl)C1=O (stereo unspecified),13.8,7.8
COc1cc(C(=O)Sc2ccc(Cl)cc2)cc(OC)c1OC,-6.2,-13.8
CCCCC(=O)NNC(=O)COc1ccccc1Cl,4.6,1.6
c1cnn(-c2cncc(NCC3CCCCCCC3)n2)c1,-19.9,-22.4
N#Cc1ccc(C(=O)N2CCN(c3nc4nccc(-c5cc(Cl)ccc5Cl)n4n3)CC2)cc1,3.4,-2.0

# Random excerpt: seven records from the list, in no set order.
SMILES,NPYLR7 ag,NPYLR7 ag max-min
O=S1(=O)c2cccnc2OC(COc2ccccc2)CN1CCOc1ccccc1 (stereo unspecified),0.6,11.9
COc1ccc(CC2c3c(cnn3-c3ccc(OC)cc3)C(=O)N2CC2CC2)cc1 (stereo unspecified),3.6,-3.7
CC(C)=CC(=O)N1CCCC(Nc2ccccc2)C1 (stereo unspecified),2.8&2.3,1.8&-0.9
COc1ccc2nc(NC(=O)/C=C/c3ccc([N+](=O)[O-])cc3)sc2c1,0.8,-2.2
O=C(O)c1nn(CC2CC2)c2c1CN(C(=O)c1cnn3c1CCCC3)CC2,11.2,-7.4
Cc1cnc(NC(C)CCN2CCOCC2)nc1N(C)C (stereo unspecified),22.4,9.2
CN1CCC2(CC1)CN(C(=O)c1n[nH]c3ccccc13)CCCN2C,11.5,8.1

# Continued:
SMILES,NPYLR7 ag,NPYLR7 ag max-min
Cn1cc([N+](=O)[O-])c(C(=O)Nc2ccc(Cl)cc2)n1,-3.4,-8.0
Cc1cccc2c1NC(=O)C2CC(=O)NCCSc1ccccn1 (stereo unspecified),1.2,-0.5
CC(=O)NCCn1c(-c2ccccc2)csc1=Nc1ccccc1F,-3.9,-7.1
CCN(CC)S(=O)(=O)c1ccc(OC)c(N2CCN(S(=O)(=O)c3cccc(C)c3)CC2)c1,20.6,13.6
CSc1ccc(C(=O)CCC(=O)N(CCCO)CC2CC2(c2ccccc2)c2ccccc2)cc1 (stereo unspecified),-8.5,-17.7
CCC(C)NC(=O)c1cc(-c2ccccc2)nc2cc(C(C)(C)C)nn12 (stereo unspecified),-3.1,-0.5
CC(=O)Nc1nc(-c2cc3cc(Cl)cc(Cl)c3oc2=O)cs1,1.9,-7.5
COc1cccc(-n2cc(-c3ccnc(N4CC(n5cccn5)C4)n3)cn2)c1,2.5,-0.8
CC(c1ccc(F)cc1)N(C)C(=O)c1ccn2nnnc2c1 (stereo unspecified),-1.9,-6.2
COc1cccc(-c2cnc(C(O)c3ccc(C(C)(C)C)cc3)[nH]2)c1 (stereo unspecified),-4.1,-4.6
CCc1ccccc1OCC(=O)N(CC)CC(=O)NCc1ccc(F)cc1,2.6,1.8
FC(F)(F)c1nc(NC2COc3ccccc32)c2ccccc2n1 (stereo unspecified),13.2,9.8
COC(=O)C1CCN(C(c2cccc(Br)c2)C2Sc3nc(C)nn3C2=O)CC1 (stereo unspecified),-0.5,-0.6
CCCCn1ncc(C)c1NC(=O)C1CC(=O)c2ccccc21 (stereo unspecified),0.4,-1.2
Cn1/c(=N\NC(=O)COc2ccccc2C#N)sc2ccccc21,-3.6,-2.5
CC12CCC(C(=O)Nc3cccc(NC(=O)C45CCC(C)(C(=O)O4)C5(C)C)n3)(OC1=O)C2(C)C,-10.3,-10.6
CC(C)Oc1ccc(C(=O)N2CCC(C(Cc3ccc(F)cc3F)N(C)C(=O)C3CC3)CC2)cc1 (stereo unspecified),7.1,0.5
COc1ccccc1/C=C/CN1CCNC(=O)C1CC(=O)NCc1cnn(C)c1 (stereo unspecified),15.6,4.1
CCOC(=O)C1CCN(Cc2nc(COc3ccccc3)no2)CC1,23.0,10.9
COc1ccccc1N1CCN(c2ccc(NC(=O)c3ccccc3C)cc2C(=O)NCc2ccccc2)CC1,13.1,8.0
CCOC(=O)C1(C)CCN1C(=O)c1ccc(C(F)(F)F)cc1 (stereo unspecified),5.3,2.6
CN(C)c1cc[n+](C2c3ccccc3-c3ccccc32)cc1,0.2,5.9
CC(C)C1CN(Cc2ccc3c(c2)OCCO3)CCC(=O)N1CC1CC1 (stereo unspecified),7.0,3.5
C1=CCC(c2nccn2CCc2ncc[nH]2)CC1 (stereo unspecified),0.1&1.9,-1.7&-2.0
CC(=O)Nc1ccc(NC(=O)CSc2nc(=O)n(Cc3ccncc3)c3c2CCCC3)cc1,0.0,-0.4

# Among those listed so far, three contain an NH in an aromatic ring:
SMILES,NPYLR7 ag,NPYLR7 ag max-min
CN1CCC2(CC1)CN(C(=O)c1n[nH]c3ccccc13)CCCN2C,11.5,8.1
COc1cccc(-c2cnc(C(O)c3ccc(C(C)(C)C)cc3)[nH]2)c1 (stereo unspecified),-4.1,-4.6
C1=CCC(c2nccn2CCc2ncc[nH]2)CC1 (stereo unspecified),0.1&1.9,-1.7&-2.0

# Continued.
SMILES,NPYLR7 ag,NPYLR7 ag max-min
Cc1ccccc1C1SC(C)C(=O)N1CCCN(C)C(=O)NC(C)C (stereo unspecified),14.3,13.0
COc1ccc(NC(=O)CSc2nnc3[nH]c(=O)c(Cc4ccc(C)cc4)nn23)cc1,1.9,-0.3
O=C(O)c1cccc(OCc2ccccc2OC(F)F)c1,-3.1,-2.4
CCOC(=O)c1oc2ccccc2c1NC(=O)c1ccc(S(=O)(=O)N2CCC(C)CC2)cc1,-3.4,-7.1
O=C(NCc1cccc(C(F)(F)F)c1)c1cc(-c2cccs2)nn1-c1cccc(Cl)c1,-2.4,9.1
O=c1nc(SCc2cccc3ccccc23)c2c(n1Cc1cccnc1)CCC2,0.0,-1.9
CCOc1ccc(-c2cc(C(=O)NCc3ccccc3OCC)c3ccccc3n2)cc1,-2.2,-1.1
c1cnc2c(-c3ccc4c(c3)OCO4)cccc2c1,4.8,1.2
NC(=O)C1CCCCC1NC(=O)c1cccc(-n2cccn2)c1 (stereo unspecified),-5.5,-6.8
Cc1cc(OCC2CN(C(=O)c3ccc(OC(F)F)cc3)CCO2)ccc1Cl (stereo unspecified),22.7,16.8
CSc1nc2n(n1)C(c1cccs1)C1C(=O)CCCC1=N2 (stereo unspecified),5.7,2.2
CCOC(=O)C1CCN(C(=O)c2cc(-c3ccccc3)n(-c3ccc4c(c3)OCO4)c2C)CC1,-2.9,-0.6
CCOc1c(Cl)cc(C(=O)N2CSCC2C(=O)NCc2ccccc2)cc1OC (stereo unspecified),6.7,5.4
Cn1cc(C(=O)Nc2ccc(F)c(Cl)c2)c2[nH]c(=O)n(-c3ccc(Cl)cc3)c(=O)c21,4.5,3.3
Cc1nc(CCNC(=O)c2cnn(Cc3ccccc3)c2)cc(=O)[nH]1,5.5,4.7
COCCNc1nc(Nc2ccc(Cl)cc2)c2nccnc2n1,-1.6,12.2
CCN(CC)P(=O)(c1nc2ccccc2n1CC)N(CC)CC,-6.4,-5.9
Cc1ccc(N2CCN(S(=O)(=O)c3ccc(F)cc3)C(C)C2=O)c(C)c1 (stereo unspecified),-4.8,-1.6
CCCn1cc(CN2CCN(Cc3ccc(F)c(F)c3)C(CCO)C2)c(C)n1 (stereo unspecified),15.7,7.7
COC(=O)c1cc2n(n1)CCCN(Cc1cccnc1N1CCOCC1)C2,-4.7,-5.6
CCCn1nc(C)c(CNc2nc(-c3cccnc3)nc3c2cnn3C)c1C,5.6,3.8
CCc1cc(N2CCOCC2)nc(SCc2ccc(C(=O)O)cc2)n1,8.2,5.6
CCOC(=O)C1CCN(C(=O)c2c(C)c(N3CCOCC3)c(C)n2Cc2ccccc2C)CC1,2.5,3.6
COCCN(Cc1cc(NC(=O)C2CCCC2)ccc1N(C)C)C(=O)c1cccs1,20.0,15.1
CC[C@H](C(=O)NCC(=O)Nc1ccccc1C)c1ccccc1,1.6,0.4

# The list goes on.
SMILES,NPYLR7 ag,NPYLR7 ag max-min
CC(=O)c1cccc(NC(=O)CSc2nc(=O)n(CCCN3CCOCC3)c3c2CCC3)c1,-0.2,-2.9
CC(CCc1ccccc1)NC(=O)c1cc(-c2ccc3c(c2)OCO3)nc2ccccc12 (stereo unspecified),-3.5,-8.2
COc1cccc(COC2CN(CCc3ccccc3)C(=O)CN(C(=O)c3csc(C)n3)C2)c1 (stereo unspecified),7.1,-6.8
CC(SC1CCCC1)C(=O)N1CCCC1 (stereo unspecified),-1.7,-4.8
COCCNc1oc(-c2ccc(COc3cccc(C)c3)o2)nc1C#N,-0.4,2.2
CCC1c2cccn2CCN1C(=O)c1cc2n(n1)CCCN(C(C)C)C2 (stereo unspecified),3.0,2.4
COC(=O)c1cccc(-c2nccn2CCc2ccco2)c1,-1.5,-5.9
COc1ccc(CCOC(=O)[C@@H]2CCCN2C(=O)C[C@H]2C[C@@H](C(C)=O)C2(C)C)cc1OC,-11.5,-23.1
CCNc1ncc(C(=O)NCC2=CCCCC2)cn1,14.6,2.3
COCCCN(CC(=O)Nc1cc(C(C)(C)C)nn1-c1ccc(C)cc1C)C(=O)Nc1cccc(Br)c1,-1.4,3.8
O=C(CN1C(=O)C(=O)N(C2CCCC2)C1=O)c1cccs1,3.1,-0.1
COC(=O)c1[nH]nc2c1C(c1oc3ccc(C)cc3c1C)CC(=O)N2 (stereo unspecified),5.7,20.4
CCOC(=O)c1c(CN2CCN(CCO)CC2)n(C)c2cc(Br)c(OC)cc12,-9.9,-17.5
CCCNC(=O)c1cc(-c2ccccc2F)nc2cc(-c3ccccc3)nn12,9.4,15.2
CCOc1ccccc1-n1ccc2c(cnc3nc4ccccc4n32)c1=O,-7.5,-14.8
Cc1ccc2c(c1)CCN1C(=O)CN(C(=O)c3cc(Cl)sc3Cl)CC21 (stereo unspecified),-4.9,10.7

# Only part of the results is shown; the hit share may differ from the screen's.
